Choline anaer gr – blocks anaerobic gram-negative growth on choline; Gram-negative bacterium anaerobic choline minimal medium, absorbance growth; hits give low values; many inactives read as strong as hits in the columns shown; calls only; actives 0.2% (n = 55,000);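 active means growth z-score on choline under -2 at 7 or 20 h with little or no fall on glycerol, limits in tiers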;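 further: stock transfer was 300 nL into about 50 µL; the organism is E. coli; final concentration not given here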
Choline anaer gr early – also measured in Choline anaer gr; calls as there; z-score; measured here: choline growth z-score, timepoint 1;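 score of optical density at 7 h as mean of two plates; lower means less growth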
Starred values were filed as active, the others as inactive; i = inactive; & = joins results of further samples.

| SMILES | Choline anaer gr | Choline anaer gr early |
| --- | --- | --- |
| O=S(=O)(c1ccccc1F)N1CCC2(CC1)Nc1ccccc1-n1cccc12 | i | -1.02 |
| COCCCNC1=NCCNC12CCN(S(=O)(=O)c1ccccc1)CC2 | i | -0.16 |
| Fc1ccc(F)c(-c2nc(-c3ccc4c(c3)ncn4CCN3CCCC3)no2)c1 | i | -0.08 |
| Clc1cccc(-c2cc(-c3nc(-c4ccccc4)no3)[nH]n2)c1 | i | 0.44 |
| CCS(=O)(=O)N1CCCN(C(C)=O)CC1 | i | 0.59 |
| COc1ccccc1OCC(=O)NC1CC(=O)N(c2ccc3c(c2)OCCO3)C1 (stereo unspecified) | i | 0.1 |
| CCC(CC)C(=O)Nc1ccc2nc(SCC(=O)N3CCCC3)sc2c1 | i | 0.03 |
| COc1ccc(-c2nn3c(NC4CCCCC4)cc(C)nc3c2C)cc1OC | i | 0.03 |
| CCOCc1nc(N2CCOCC2)sc1C(=O)NCc1cccc(OC)c1 | i | 1.51 |
| Cc1ccc2oc(C(=O)Nc3sc4c(c3C(=O)NC3CCS(=O)(=O)C3)CCC4)c(C)c2c1 (stereo unspecified) | i | -0.4 |
| Cc1ccc(C)c(-c2csc3c(=O)[nH]cnc23)c1 | i | -1.58 |
| CCOc1ccc2c(c1)cc(C(=O)NCCOc1ccc(Cl)cc1)n2C | i | 0.46 |
| Cc1nc2sc3c(N4CCC(C)CC4)ncnc3c2c2c1COC(C)(C)C2 | i | -0.03 |
| CC1CCCC(C)N1C(=O)c1cc(-c2ccccc2)n[nH]1 (stereo unspecified) | i | 0.11 |
| O=C(CCN(CC1CCCO1)C(=O)c1ccc(Cl)cc1)N1CCNCC1 (stereo unspecified) | i | -1.11 |
| O=C(Cn1ccc2cc(S(=O)(=O)N3CCCC3)ccc21)NCCc1ccc(Cl)cc1 | i | -0.87 |
| Cc1ccc(N(Cc2nnc(SCC(=O)Nc3cc(Cl)ccc3O)n2C)S(C)(=O)=O)cc1 | i | 1.87 |
| CCCCC[C@@](C)(O)/C=C/[C@@H]1[C@@H](C/C=C\CCCC(=O)OC)[C@@H](O)C[C@H]1O | i | 1 |
| Cc1cc(C2CCCN2C(=O)c2cccc(F)c2)no1 (stereo unspecified) | i | -1.48 |
| C[C@@H](CN1CCC(Cc2ccccc2)CC1)[C@@H](O)c1ccc(O)cc1 | i | 0.23&0.01 |
| CN(C)c1cc(NC(=O)CNC(C)(C)C)c(O)c2c1C[C@H]1C[C@H]3[C@H](N(C)C)C(=O)C(C(N)=O)=C(O)[C@@]3(O)C(=O)C1=C2O | i | 1.11 |
| CNC(=O)c1nc(C(C)(C)NC(=O)c2ccco2)nc2c1OCO2 | i | -0.31 |
| CN(Cc1ccccc1)Cc1cc(=O)n2[nH]c(-c3ccccc3)nc2n1 | i | -0.27 |
| CCc1ccc(NC(=O)Nc2cccc(-c3nnc(-c4ccccc4)o3)c2)cc1 | i | 0.25 |
| O=C(Nc1ccc(F)c(F)c1)c1ccc(-n2nc(OCc3ccc(Cl)cc3)ccc2=O)cc1 | i | -0.82 |
| CCN1CCN(CC2CCN(S(=O)(=O)c3ccc(C#N)cc3)CC2)CC1 | i | 0.69 |
| Cc1ccc(Nc2ccc(N3CCN(C(=O)Cc4ccc(Cl)cc4)CC3)nn2)cc1 | i | 1.05 |
| CCc1nc(-c2cc(S(=O)(=O)N3CCCC(C(=O)N4CCOCC4)C3)c(C)s2)no1 (stereo unspecified) | i | 0.26 |
| O=C(Nc1cccc(Br)c1)c1cccc(Nc2cc(-c3ccccc3)ncn2)c1 | i | 0.46 |
| COc1ccccc1NC(=O)Nc1nnc(CC(=O)N2CCc3ccccc32)s1 | i | 0.67 |
| CCc1ccccc1NC(=O)Cn1ncn2c(cc3ccccc32)c1=O | i | -1.29 |
| CC(C)N(Cc1ccccc1)C(=O)c1cc2c(=O)n3ccccc3nc2n1C | i | 0.3 |
| O=C(Cn1ncn2nc3c(c2c1=O)CCCC3)Nc1cccc(Cl)c1 | i | 1.65 |
| Cc1nn(CC(=O)NCCc2c[nH]c3ccc(Cl)cc23)c(=O)c2c(C)n(-c3ccccc3)nc12 | i | -0.15 |
| O=C(O)CC1C(=O)NCCN1Cc1ccc(F)cc1 (stereo unspecified) | i | 0.45 |
| CCC(=O)Nc1nc2cc(NC(=O)C3CCN(S(=O)(=O)N(CC)CC)CC3)ccc2s1 | i | -0.26 |
| CCS(=O)(=O)N1CCCc2cc(NS(C)(=O)=O)ccc21 | i | -0.87 |
| COc1ccc(C(CNC(=O)COc2ccc(Br)cc2)c2c[nH]c3ccccc23)cc1 (stereo unspecified) | i | -0.48 |
| CS(=O)(=O)Nc1ccc(N2CCOCC2)c(C(=O)O)c1 | i | -0.87 |
| CCOC(=O)c1c(C)[nH]c(C)c1S(=O)(=O)N1CCCC(C(=O)NCCC2=CCCCC2)C1 (stereo unspecified) | i | -1.58 |
| CN(C)S(=O)(=O)c1ccc(-c2nnc(C(=O)NC3CCCCC3)o2)cc1 | i | 0.25 |
| Cc1ccc(-c2cc(C(=O)O)c3c(-c4ccc(Cl)cc4)[nH]nc3n2)cc1 | i | 0.31 |
| Cc1cccc(OCCCn2c(C3CCCO3)nc3ccccc32)c1 (stereo unspecified) | i | -0.49 |
| O=C(CCC(=O)N1CCc2cc(S(=O)(=O)NCC3CCCO3)ccc21)N1CCOCC1 (stereo unspecified) | i | 0.36 |
| COc1cc(OC)cc(C(=O)Nc2c(C)nc3scc(C)n3c2=O)c1 | i | 1.08 |

Compound profiles, from the list above.
Profile of CCC(=O)Nc1nc2cc(NC(=O)C3CCN(S(=O)(=O)N(CC)CC)CC3)ccc2s1 → Choline anaer gr = i; Choline anaer gr early = -0.26
Profile of COc1cc(OC)cc(C(=O)Nc2c(C)nc3scc(C)n3c2=O)c1 → Choline anaer gr = i; Choline anaer gr early = 1.08
Profile of CC(C)N(Cc1ccccc1)C(=O)c1cc2c(=O)n3ccccc3nc2n1C → Choline anaer gr = i; Choline anaer gr early = 0.3

(list continues)
| SMILES | Choline anaer gr | Choline anaer gr early |
| --- | --- | --- |
| CCCCSc1nnc2n(Cc3ccc(F)cc3)c(=O)c3sccc3n12 | i | 1.5 |
| Cc1ccc(-c2ccc(-n3nc(C)c(S(=O)(=O)Nc4ccccc4)c3C)nn2)cc1 | i | -0.56 |
| Cc1ccc(C(=O)Nc2cccc(-n3c(C)nc4ncccc4c3=O)c2)cc1 | i | -1.91 |
| NC(=O)CNCCC(c1ccccc1)c1ccccc1 | i | -0.36&-0.02 |
| Cc1c(-c2nc(C3CCC3)no2)c(S(=O)(=O)NC2CCCC2)c(C)n1C | i | 0.85 |
| CC(C)n1c(SCC(=O)c2ccc3c(c2)OCCO3)nnc1-c1ccc2c(c1)OCCCO2 | i | 0.35 |
| CN1C[C@H](C(=O)N[C@]2(C)O[C@@]3(O)[C@@H]4CCCN4C(=O)[C@H](Cc4ccccc4)N3C2=O)CC2c3cccc4[nH]cc(c34)C[C@H]21 (mixture of isomers) | i | 1.47 |
| COc1ccc(-n2nnnc2C2(N3CCCC3)CCCC2)cc1 | i | -0.16 |
| CCSc1c(CC(C)C)cnc2c1c(=O)n(C)c(=O)n2C | i | -0.25 |
| Cc1ncc2c(n1)CCN(S(=O)(=O)c1ccc(Br)cc1)C2 | i | -0.18 |
| O=C(NCCCN1CCOCC1)C1CCCN(c2nc3ccccc3n(Cc3ccccc3)c2=O)C1 (stereo unspecified) | i | 0.43 |
| COc1ccc(-c2noc(CSCC(=O)N3CCNC3=O)n2)cc1 | i | 0.03 |
| Cc1sc(-c2noc(C(=O)N3CCOCC3)n2)cc1S(=O)(=O)NC1CCCC1 | i | -0.68 |
| NCCCCCCCCCCNS(=O)(=O)c1cccc2c(Cl)cccc12 | i | 0.67 |
| COc1ccc(-c2noc(-c3cccc(NC(=O)C4CC(=O)N(c5ccccc5OC)C4)c3)n2)cc1 (stereo unspecified) | i | -1.34 |
| NC(C(=O)O)c1nn[nH]n1 (stereo unspecified) | i | 0.53 |
| Cc1cc(Cl)ccc1N1C(=O)c2cc3ccsc3n2CC1(C)C(=O)NC1CCCC1 (stereo unspecified) | i | 0.56 |
| CCCC(=O)Nc1ccc(Nc2cc(N(C)C)nc(C)n2)cc1 | i | 0.37 |
| O=S(=O)(c1ccc(Cl)cc1)N1CCn2cccc2C1c1ccc(Br)cc1 (stereo unspecified) | i | -0.19 |
| COc1cccc(-c2cncc(C(=O)NCc3ccc(Br)cc3)c2)c1 | i | 2.55 |
| O=C(NCCN1CCOCC1)C1CCN(c2cncnc2N2CCCCC2)CC1 | i | 0.79 |
| O=C(CCc1nc(CSc2nnc(-c3ccccc3)o2)no1)Nc1ccc(F)cc1 | i | -0.65 |
| COC(=O)COC(=O)c1cc2c(C)nn(-c3cccc(F)c3)c2s1 | i | 0.09 |
| O=C(CN1N=C(c2ccccc2)c2cc(Cl)ccc2S1(=O)=O)Nc1ccc2c(c1)OCO2 | i | 0.83 |
| CCC(=O)Nc1ccc2c(c1)nc(CN1CCN(C(C)=O)CC1)n2CC | i | 0.59 |
| CC(C)N1CCc2nc(NC(=O)CN3C(=O)c4ccccc4C3=O)sc2C1 | i | -0.32 |
| CC(C)CC(=O)Nc1ccc(SCc2cc(=O)n3c(ncn3C(C)C)n2)cc1 | i | 0.04 |
| CC(O)CNc1nc(Nc2ccc3c(c2)OCO3)c2cnn(-c3ccccc3)c2n1 (stereo unspecified) | i | 0.71 |
| CCC(C)(C)NC(=O)C1CCCN(S(=O)(=O)c2cc3c(cc2C)NC(=O)CO3)C1 (stereo unspecified) | i | -0.75 |
| Cc1ccccc1C(=O)Nc1nc(-c2ccc3c(c2)N(C)C(=O)CO3)cs1 | i | 0.18 |

The listing continues.
compound,Choline anaer gr,Choline anaer gr early
CS(=O)(=O)Nc1ccc(-c2noc(Cc3ccccc3Br)n2)cc1,i,-0.6
CCc1ccc(-n2ncc(-c3cc(C(=O)NCc4cccnc4)c4ccccc4n3)c2C)cc1,i,1.4
CNC[C@H](O)[C@@H](O)[C@H](O)[C@H](O)CO,i,-0.73&0.29
Cn1nc(C(=O)N2CCCC(C(=O)NC3CC3)C2)c2c1CCN(C(=O)c1ccc(Cl)cc1)C2 (stereo unspecified),i,0.1
C#CCOc1ccc2c(c1)c(C(=O)OCC)c(C)n2CCc1ccccc1,i,-0.73
CCOC(=O)c1onc(-c2ccc(OC)cc2)c1N,i,-1.25
CC(=O)Nc1ccc(NC(=O)CCc2c(C)nn(-c3ccc4nncn4n3)c2C)cc1,i,0.88
Cc1ccc(-n2nc(N3CCN(S(=O)(=O)c4cccc5nsnc45)CC3)ccc2=O)cc1,i,1.17
O=C1c2cccnc2C(=O)N1Cc1ccc(S(=O)(=O)N2CCN(c3ccccc3F)CC2)cc1,i,0.71
CNCCC=C1c2ccccc2C=Cc2ccccc21,i,-0.4
COc1ccc(-c2[nH]ncc2CN2CCCC2c2cc(C)on2)cc1 (stereo unspecified),i,0.08
C/C=C1/C(=O)C[C@H]2[C@@H]3CCC4=CC(=O)CC[C@]4(C)[C@H]3CC[C@]12C,i,-0.1
COC(=O)c1cccc(NC(c2ccccn2)c2ccc3cccnc3c2O)c1 (stereo unspecified),i,0.1
Cc1ccc(-c2nc3ccccc3[nH]2)cc1NC(=O)c1ccc2c(c1)OCCO2,i,-1.31
O=C(c1csc(S(=O)(=O)NC2CC2)c1)N1CCCC1,i,-0.48
COc1ccc(OCC(=O)NCC(c2ccc(OC)cc2)c2c[nH]c3ccccc23)cc1 (stereo unspecified),i,0.34
CCOC(=O)c1ccc(NC(=O)Cn2nc(C(=O)Nc3ccc(C)cc3)ccc2=O)cc1,i,0.72
Cc1csc2ncc(C(=O)N3c4ccc(F)cc4CCC3C)c(=O)n12 (stereo unspecified),i,0.22
O=S(=O)(Cc1nc(-c2cccc(Br)c2)no1)c1ccccc1,i,0.33
Cc1ccc2c(Sc3ccc(Cl)cc3)c(C(=O)N3CCN(C)CC3)[nH]c2c1,i,-0.67

In another format: entries from further up
C/C=C1/C(=O)C[C@H]2[C@@H]3CCC4=CC(=O)CC[C@]4(C)[C@H]3CC[C@]12C
  Choline anaer gr: i	Choline anaer gr early: -0.1

COC(=O)c1cccc(NC(c2ccccn2)c2ccc3cccnc3c2O)c1 (stereo unspecified)
  Choline anaer gr: i	Choline anaer gr early: 0.1

Cc1ccc(-c2nc3ccccc3[nH]2)cc1NC(=O)c1ccc2c(c1)OCCO2
  Choline anaer gr: i	Choline anaer gr early: -1.31

O=C(c1csc(S(=O)(=O)NC2CC2)c1)N1CCCC1
  Choline anaer gr: i	Choline anaer gr early: -0.48

More compounds
compound,Choline anaer gr,Choline anaer gr early
CCOc1ccc(N2CC(C)Cn3c2nc2c3c(=O)[nH]c(=O)n2C)cc1 (stereo unspecified),i,0.05
O=C(Cn1c(=O)n(CC2CCCO2)c(=O)c2sc3ncccc3c21)NC1CCCC1 (stereo unspecified),i,0.05
COc1ccc(Cl)cc1S(=O)(=O)N1CCC(n2cnc3ccc(F)cc3c2=O)CC1,i,-0.67
CCOc1ccc(NC(=O)c2nn(-c3cccc(Cl)c3)ccc2=O)cc1,i,-0.55
Cc1ccc(-n2nc(C)c3c(C)cc(=O)[nH]c32)cc1,i,-0.09
COc1ccccc1CNCCCCCCNCCCCCCCCNCCCCCCNCc1ccccc1OC,i,-3.39
Cn1c(NC(=O)c2cccc(Cl)c2)cc(=O)n(C)c1=O,i,0.66
NS(=O)(=O)c1ccc(CCNC(=O)Cc2csc(NC(=O)c3ccc(Cl)cc3)n2)cc1,i,2.25
CS(=O)(=O)N1CCC(N2CCN(Cc3ccc(F)cc3)C(=O)C2=O)CC1,i,0.05
Cc1ccc(C2CCCCCN2C(=O)NCC(C)C)s1 (stereo unspecified),i,0.05
CCCn1c(=O)c2ccc(Cl)cc2n2c(=O)n(CC(=O)Nc3ccc(Cl)cc3)nc12,i,-0.43
Cn1c(NCCN(CCO)CCCc2ccc([N+](=O)[O-])cc2)cc(=O)n(C)c1=O,i,0.25&0.36&0.28
O=S(=O)(c1ccc(F)c(F)c1)N1CCC(c2noc(-c3ccc(F)cc3)n2)CC1,i,0.1
Cc1cccc(CN2CC=C(C(=O)Nc3cccc(Cl)c3)CC2)c1,i,-2.18

Not all compounds are listed (hit frequency here may not be typical).
